Bioassay records as filed in PubChem.
HIV Env fusion: HIV envelope-mediated fusion inhibition | HeLa-JRFL Env/CEM21 cell fusion, luciferase | inhibition, % at 12.3 µM | hit rate 1.1% among 360,000 | AID 651610;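 active means mean replicate inhibition score of at least 50 and every replicate individually at or above 50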;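 further: 0% = plate neutral controls and 100% = maraviroc near 300 nM; one replicate is shown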
Active calls of the source: *; [ ] = dose if it differs, or a comment.

HIV Env fusion	molecule
-11[16.7 µM]	COc1ccc(NC(=O)N(C)C[C@H]2Oc3ccc(NS(=O)(=O)c4ccccc4)cc3CC(=O)N([C@@H](C)CO)C[C@@H]2C)cc1
18[16.7 µM]	C[C@H](NC(=O)N(C)C[C@@H]1OCc2ccccc2-c2ccccc2C(=O)N([C@H](C)CO)C[C@H]1C)c1ccccc1
-7[16.7 µM]	C[C@H]1CN([C@@H](C)CO)S(=O)(=O)c2ccc(C#CCN(C)C)cc2O[C@H]1CN(C)C(=O)C1CCCCC1
-14[16.7 µM]	CN(C)C(=O)[C@@H]1[C@@H](CO)[C@@H]2Cn3c(ccc(-c4cccc(F)c4)c3=O)[C@H]1N2Cc1ccccc1
9[16.7 µM]	CO[C@H]1CN(C)C(=O)c2cccc(C#N)c2OCC[C@@H]2CC[C@H](OC)[C@@H](CN(C)C(=O)[C@H]1C)O2
-5	CCc1ccc(C2=CC(=O)CC(C)(C)C2=O)cc1
-2[16.7 µM]	COC(=O)C[C@H]1CC[C@H]2[C@@H](COc3ccc(NC(=O)c4cccc(Cl)c4)cc3C(=O)N2C)O1
9[16.7 µM]	CCNC(=O)[C@@H]1[C@@H](CO)[C@@H]2Cn3c(ccc(-c4ccc(F)cc4)c3=O)[C@@H]2N1C(=O)Cc1cccnc1
0[16.7 µM]	C[C@H](CO)N1C[C@H](C)[C@H](CN(C)C(=O)C2CC2)Oc2ncc(C#CC3(O)CCCC3)cc2C1=O
17[16.7 µM]	O=C(C1CCCC1)N1CC2(C1)[C@@H](c1ccccc1)[C@@H](CO)N2Cc1ccccc1F
-42[16.7 µM]	C[C@@H]1CN([C@@H](C)CO)C(=O)c2cc(/C=C/c3ccccc3)cnc2O[C@H]1CN(C)C(=O)C1CC1
11[16.7 µM]	C[C@@H]1CN([C@H](C)CO)C(=O)CCCn2cc(nn2)CO[C@@H]1CN(C)Cc1ccc2c(c1)OCO2
-30[16.7 µM]	C[C@@H]1CN([C@H](C)CO)C(=O)c2c(c3ccccc3n2C)-c2ccccc2CO[C@@H]1CN(C)C(=O)[C@@H]1CCCN1C
-1[16.7 µM]	CN(C)C(=O)[C@H]1[C@H](CO)[C@H]2Cn3c(ccc(C4=CCCC4)c3=O)[C@@H]1N2C(=O)Nc1ccccc1
15[16.7 µM]	O=C(NC1Cc2ccccc2C1)[C@H]1[C@H](CO)[C@H]2Cn3c(cccc3=O)[C@H]2N1C(=O)c1cnccn1
-4[16.7 µM]	Cc1ccc(S(=O)(=O)N[C@@H]2C=C[C@@H](CC(=O)NCCN3CCCCC3)O[C@@H]2CO)cc1
-28	C[C@@H]1ON(C)[C@H]2C[C@H]3c4cc(N5CCN(C)CC5)ccc4CCN3C[C@@H]12
19[16.7 µM]	C[C@@H]1CN([C@@H](C)CO)C(=O)c2c(c3ccccc3n2C)-c2ccccc2CO[C@H]1CN(C)C(=O)c1cc(Cl)cc(Cl)c1
6[16.7 µM]	C[C@@H]1CN([C@@H](C)CO)C(=O)c2ccccc2-c2ccccc2CO[C@@H]1CN(C)Cc1cccc2c1OCCCO2
-3	Cc1[nH]c2ccccc2c1CC(=O)Nc1ccc(N(C)c2cccnc2)c(-c2cccc(Cl)c2)c1
-13	Cc1cc2c(nc1C)CCCN2S(=O)(=O)c1c(C)noc1C
-15[16.7 µM]	Cc1ccc(S(=O)(=O)N(C)C[C@H]2Oc3ccc(NS(=O)(=O)c4cn(C)cn4)cc3C(=O)N([C@H](C)CO)C[C@H]2C)cc1
4[16.7 µM]	COC(=O)C[C@@H]1CC[C@@H]2[C@H](COC[C@H](O)CN2S(=O)(=O)c2ccccc2OC)O1
3[16.7 µM]	O=C(C[C@H]1C[C@H]2c3cc(NC(=O)c4ccc5c(c4)OCO5)ccc3O[C@H]2[C@H](CO)O1)NCc1ccccn1
0[16.7 µM]	Cc1noc(C)c1NC(=O)Nc1ccc2c(c1)C(=O)N(C)[C@@H]1CC[C@@H](CC(=O)N[C@H]3CCN(Cc4ccccc4)C3)O[C@@H]1CO2

As entered above:
HIV Env fusion with `COC(=O)C[C@@H]1CC[C@@H]2[C@H](COC[C@H](O)CN2S(=O)(=O)c2ccccc2OC)O1` : 4[16.7 µM]
HIV Env fusion with `CN(C)C(=O)[C@H]1[C@H](CO)[C@H]2Cn3c(ccc(C4=CCCC4)c3=O)[C@@H]1N2C(=O)Nc1ccccc1` : -1[16.7 µM]
HIV Env fusion with `Cc1noc(C)c1NC(=O)Nc1ccc2c(c1)C(=O)N(C)[C@@H]1CC[C@@H](CC(=O)N[C@H]3CCN(Cc4ccccc4)C3)O[C@@H]1CO2` : 0[16.7 µM]
HIV Env fusion with `C[C@H](NC(=O)N(C)C[C@@H]1OCc2ccccc2-c2ccccc2C(=O)N([C@H](C)CO)C[C@H]1C)c1ccccc1` : 18[16.7 µM]
HIV Env fusion with `COc1ccc(NC(=O)N(C)C[C@H]2Oc3ccc(NS(=O)(=O)c4ccccc4)cc3CC(=O)N([C@@H](C)CO)C[C@@H]2C)cc1` : -11[16.7 µM]
HIV Env fusion with `CCc1ccc(C2=CC(=O)CC(C)(C)C2=O)cc1` : -5

(next part)
HIV Env fusion	molecule
-8[16.7 µM]	C[C@H](CO)N1C[C@H](C)[C@H](CN(C)C(=O)C2CC2)Oc2cc(-c3cccnc3)ccc2S1(=O)=O
-11	Nc1ccn([C@@H]2O[C@H](C(=O)N[C@H](Cc3ccccc3)C(=O)N3CCC(F)(F)CC3)[C@@H](O)[C@H]2O)c(=O)n1
11[16.7 µM]	C[C@@H]1CN([C@H](C)CO)C(=O)Cc2cc(NS(=O)(=O)c3cn(C)cn3)ccc2O[C@@H]1CN(C)S(=O)(=O)c1ccc(F)cc1
-19[16.7 µM]	CO[C@@H]1CN(C)C(=O)c2cc(NC(=O)C3CCCCC3)ccc2OC[C@@H](C)N(Cc2nccs2)C[C@@H]1C
12[16.7 µM]	CC(C)NC(=O)Nc1ccc2c(c1)C(=O)N([C@H](C)CO)C[C@@H](C)[C@@H](CN(C)C(=O)CCCN(C)C)OCCCC[C@@H](C)O2
-22[16.7 µM]	Cc1noc(C)c1NC(=O)NCC[C@@H]1CC[C@H](NC(=O)c2ccc(F)cc2)[C@@H](CO)O1
-1[16.7 µM]	CO[C@@H]1CN(C)C(=O)c2ccc(NC(C)=O)cc2OC[C@H](C)N(C(=O)Cc2ccccn2)C[C@@H]1C
-10[16.7 µM]	C[C@@H]1CCCCO[C@H](CN(C)CC2CC2)[C@H](C)CN([C@@H](C)CO)C(=O)c2cc(N(C)C)ccc2O1
19[16.7 µM]	CCCC(=O)Nc1ccc2c(c1)C(=O)N(C)C[C@H](OC)[C@H](C)CN(C(=O)CC1CC1)[C@H](C)CO2
-25	CCNC(=O)N(C)[C@H]1C[C@H]2c3[nH]c4c(-c5ccccc5)cccc4c3CCN2C(=O)[C@H]1[C@H](C)O
7	Cc1ccc(C2=CC(=O)CC(C)(C)C2=O)cc1
11[16.7 µM]	CN(C)CC(=O)Nc1ccc2c(c1)[C@H]1C[C@@H](CC(=O)N3CCc4ccccc4C3)O[C@H](CO)[C@H]1O2
2[16.7 µM]	C[C@H](NC(=O)C[C@H]1C[C@@H]2c3cc(NC(=O)NC4CCCCC4)ccc3O[C@@H]2[C@@H](CO)O1)c1ccccc1
16	Cc1ccc(S(=O)(=O)N2CC(CBr)=CCC2c2ccccc2)cc1 (stereo unspecified)
-3	O=C1NC(c2ccccc2)(c2ccccc2)C(=O)N1CNc1ccccn1
3[16.7 µM]	CN(C)C(=O)c1cc2c(c(-c3cccc(-c4ccc(F)cc4)c3)n1)[C@H](CCO)N([S@@](=O)C(C)(C)C)C2
1[16.7 µM]	COc1ccc2c3c(n(C)c2c1)[C@H](CO)N(C(=O)c1ccc(F)cc1)CC31CCN(C(=O)c2ccc(F)cc2)CC1
-19[16.7 µM]	C[C@@H]1CN([C@H](C)CO)S(=O)(=O)c2ccc(-c3cccnc3)cc2O[C@@H]1CN(C)C(=O)C1CC1
-4[16.7 µM]	C[C@@H]1CN([C@H](C)CO)C(=O)c2c(c3ccccc3n2C)-c2ccccc2CO[C@@H]1CN(C)C(=O)c1ccncc1
3[16.7 µM]	O=C(C[C@@H]1C[C@H]2c3cc(NS(=O)(=O)c4ccc(F)cc4)ccc3O[C@H]2[C@H](CO)O1)N1CCc2ccccc2C1
-6[16.7 µM]	COC(=O)C[C@H]1CC[C@@H]2[C@H](COc3ccc(NS(=O)(=O)c4ccccc4Cl)cc3C(=O)N2C)O1
3[16.7 µM]	C[C@H]1CN([C@@H](C)CO)S(=O)(=O)c2ccc(C3=CCCC3)cc2O[C@@H]1CN(C)C(=O)c1ccc(F)cc1
-2[16.7 µM]	C[C@@H]1CCCCO[C@@H](CN(C)C)[C@H](C)CN([C@@H](C)CO)C(=O)c2cc(NC(=O)NC3CCCCC3)ccc2O1
10[16.7 µM]	C[C@@H]1CN([C@H](C)CO)C(=O)c2cc(NC(=O)c3ccncc3)ccc2O[C@@H](C)CCCCO[C@@H]1CN(C)CC1CCCCC1
11[16.7 µM]	CC(C)NC(=O)Nc1ccc2c(c1)C(=O)N([C@@H](C)CO)C[C@@H](C)[C@H](CN(C)CC1CCCCC1)OCCCC[C@H](C)O2
12[16.7 µM]	C[C@H](CO)N1C[C@H](C)[C@@H](CN(C)C(=O)Cc2ccccc2)OCc2ccccc2-c2c(n(C)c3ccccc23)C1=O
-65	O=C(N[C@H](C(=O)N1CCC[C@H]1C(=O)NCCc1ccccc1Cl)C1CCCCC1)c1ccc(Cl)c(Cl)c1
7[16.7 µM]	Cc1ccc(S(=O)(=O)N[C@H]2CC[C@@H](CCn3cc(-c4cccnc4)nn3)O[C@@H]2CO)cc1
0[16.7 µM]	C/C=C/c1cccc(-c2nc(C(=O)NCc3cccc(OC)c3)cc3c2[C@@H](CCO)N([S@](=O)C(C)(C)C)C3)c1
10	Cc1[nH]nc2c1C(c1ccccc1)N(c1ccccc1)C2=O (stereo unspecified)
-3[16.7 µM]	CC=Cc1ccc2n(c1=O)C[C@H]1[C@H](CO)[C@@H](C(=O)NCc3ccncn3)N(C(=O)NC3CCCC3)[C@@H]21 (mixture of isomers)
3[16.7 µM]	CN(C)C(=O)[C@@H]1[C@@H](CO)[C@@H]2Cn3c(ccc(C4=CCCC4)c3=O)[C@@H]2N1C(=O)c1ccccc1F
9[16.7 µM]	COc1ccc(-c2cnc3c(c2)C(=O)N([C@H](C)CO)C[C@@H](C)[C@H](CN(C)S(=O)(=O)c2ccc(OC)cc2)O3)cc1
-9	CCCN1C(=O)c2n[nH]c(C)c2C1c1ccc2c(c1)OCO2 (stereo unspecified)
-6[16.7 µM]	CCCN1C[C@H](C)[C@H](OC)CN(C)C(=O)c2ccc(NC(=O)c3ccc(F)cc3)cc2OC[C@H]1C
35	O=C(N[C@H](C(=O)N1CCC[C@H]1C(=O)NCc1ccccc1)c1ccccc1)c1ccc(Cl)c(Cl)c1
-3[16.7 µM]	CCS(=O)(=O)Nc1ccc2c(c1)C(=O)N(C)[C@H]1CC[C@H](CC(=O)N[C@@H]3CCN(Cc4ccccc4)C3)O[C@@H]1CO2
-17	COCc1cc(N2CCNC[C@@H]2C)ccc1N1CCS(=O)(=O)CC1
-8[16.7 µM]	C[C@@H]1CN([C@H](C)CO)C(=O)Cc2cc(NS(=O)(=O)c3ccc(F)cc3)ccc2O[C@@H]1CN(C)Cc1ccc(Cl)c(Cl)c1
-19	Cc1ccc2nc(-c3ccc(CN4CCC(n5cc(-c6ccccc6)[nH]c5=O)CC4)cc3)c(-c3ccccc3)nc2c1
1[16.7 µM]	C[C@@H]1CN([C@@H](C)CO)C(=O)Cc2cc(NC(=O)Cc3cn(C)c4ccccc34)ccc2O[C@@H]1CN(C)S(=O)(=O)c1ccc(Cl)cc1
0[16.7 µM]	CO[C@H]1CN(C)C(=O)c2ccc(NC(=O)c3ccno3)cc2OC[C@H](C)NC[C@H]1C
-28[16.7 µM]	COc1ccc2c3c([nH]c2c1)[C@@H](CO)N(Cc1cccnc1)CC31CN(C(=O)c2cccnc2)C1
-17[16.7 µM]	Cc1noc(C)c1S(=O)(=O)Nc1ccc2c(c1)CC(=O)N([C@H](C)CO)C[C@@H](C)[C@H](CN(C)Cc1ccc(-c3ccccc3)cc1)O2
0[16.7 µM]	O=C(C[C@H]1CC[C@H]2NC[C@H](O)COC[C@@H]2O1)NCCN1CCCCC1
8[16.7 µM]	C[C@@H]1CN([C@H](C)CO)C(=O)CCCn2cc(nn2)CO[C@H]1CN(C)Cc1ccc(O)cc1
3[16.7 µM]	COc1ccc(CN(C)C[C@@H]2Oc3c(NS(C)(=O)=O)cccc3C(=O)N([C@@H](C)CO)C[C@H]2C)cc1
12[16.7 µM]	COc1cccc(NC(=O)Nc2ccc3c(c2)C(=O)N(C)C[C@H](OC)[C@H](C)CN(CC2CC2)[C@@H](C)CO3)c1
-38[16.7 µM]	CO[C@@H]1CC[C@H]2CCOc3ccc(C#N)cc3C(=O)N(C)C[C@H](c3ccccc3)CC(=O)N(C)C[C@@H]1O2
-8[16.7 µM]	Cc1ccccc1S(=O)(=O)N(C)C[C@H]1OCc2ccccc2-c2ccccc2C(=O)N([C@H](C)CO)C[C@H]1C

Looked up by compound from the list above (2):
HIV Env fusion	molecule
1[16.7 µM]	COc1ccc2c3c(n(C)c2c1)[C@H](CO)N(C(=O)c1ccc(F)cc1)CC31CCN(C(=O)c2ccc(F)cc2)CC1
-3	Cc1[nH]c2ccccc2c1CC(=O)Nc1ccc(N(C)c2cccnc2)c(-c2cccc(Cl)c2)c1

The list goes on:
HIV Env fusion	molecule
7[16.7 µM]	CNC[C@@H]1OCCCC[C@@H](C)Oc2ccc(NS(=O)(=O)c3cccs3)cc2C(=O)N([C@@H](C)CO)C[C@H]1C
-18[16.7 µM]	CO[C@@H]1CN(C)C(=O)c2cc(NC(=O)Nc3ccccc3)ccc2OC[C@@H](C)N(C(=O)CC2CC2)C[C@@H]1C
2[16.7 µM]	CO[C@@H]1CN(C)C(=O)c2cc(NC(C)=O)ccc2OC[C@@H](C)N(Cc2cccc(F)c2)C[C@@H]1C
77*[16.7 µM]	CO[C@H](CN(C)S(=O)(=O)c1ccc(Cl)cc1)[C@@H](C)CN([C@@H](C)CO)S(=O)(=O)c1cccc(Cl)c1

Molecules from the list above that have a cyano group (two):
HIV Env fusion	molecule
9[16.7 µM]	CO[C@H]1CN(C)C(=O)c2cccc(C#N)c2OCC[C@@H]2CC[C@H](OC)[C@@H](CN(C)C(=O)[C@H]1C)O2
-38[16.7 µM]	CO[C@@H]1CC[C@H]2CCOc3ccc(C#N)cc3C(=O)N(C)C[C@H](c3ccccc3)CC(=O)N(C)C[C@@H]1O2

Some of the compounds tested. The share of hits here may be higher or lower than overall.
